From PubChem BioAssay
Mtb hypoxia rep = inhibitors of hypoxia-regulated fluorescent reporter in Mycobacterium tuberculosis; fluorescence inhibition, % (no concentration beside the values); M. tuberculosis hypoxia-regulated fluorescent reporter, fluorescence; 0.1% of 300,000 active;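 active = 35 to 45% if threefold the growth effect, above 45% if 1.5-fold the growth effect; inactive = the rest, general growth blockers included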;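 note: wells of about 50 µL received 100 nL stock; 0% = vehicle wells and 100% = reference inhibitor wells; whole bacteria with a GFP reporter of the hypoxia response; strong numbers were not always called active; many hits fall short of the cut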
Bead autofluor = compound fluorescence in toxin protease inhibitor counterscreen; compound autofluorescence counterscreen, microsphere flow cytometry; hits give high values; fluorescence intensity (concentration not given with the values); 3.1% of 360,000 active;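 active = at least 3 SD above the mean of all compounds, about 16000 in these data; inconclusive = too few beads counted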;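 note: 100 nL of 1 mM stock went into each well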
Sa ugtP lethal = compounds lethal to S. aureus RN4220 ugtP deletion mutant; 0.54% of 330,000 active; OD600 growth, 16 h; some inactives read as strong as hits; growth inhibition, % (no concentration beside the values); AID 1259309;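 active = z-score under -3 and OD600 up to 0.15 on both plates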;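 note: plate controls were untreated wells for no effect and antibiotic for full effect; wells of about 80 µL received 100 nL stock; the first replicate is given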
BJeLR lethal = BJeLR cell viability loss; 0.17% of 300,000 active; inhibition, % (concentration not given with the values); AID 1554; BJeLR (HRASV12) viability, CellTiter-Glo ATP luminescence, 48 h; reference of the scale not given here;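 active = replicate mean above 50%; inconclusive = above 50% but judged a plate artefact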;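 note: 50 nL library stock added to about 25 µL; numbers are from one replicate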
RN4220 kill = kills Staphylococcus aureus RN4220; S. aureus RN4220 growth, OD600, 16 h; inhibition, % (concentration not given with the values); 0.33% of 330,000 active; AID 1259311;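 active = z-score of -3 or lower and OD600 up to 0.18 on both plates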;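 note: plate controls were untreated cells for no effect and reference antibiotic for full effect; stock transfer was 100 nL into about 80 µL; one replicate is shown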
PrP UTR inh = suppresses PrP 5' UTR mRNA reporter expression; cell-based PrP 5' UTR mRNA reporter, plate reader; inhibition, % (no concentration beside the values); 0.35% of 340,000 active;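 active = every replicate at 50% or more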;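 note: 0 = median of the neutral control wells; tested in H4 reporter cells; numbers are from one replicate; inactives centre near -14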
Mtb hypoxia rep growth = recorded beside Mtb hypoxia rep, whose call it bears; growth inhibition, %; measured here: M. tuberculosis growth (absorbance);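 0% = vehicle and 100% = reference antibiotic; read after six days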
Active calls of the source: *; ? = inconclusive; · = no result given.

Preview (2 entries):
Below each compound – Mtb hypoxia rep growth, PrP UTR inh, Sa ugtP lethal, RN4220 kill, BJeLR lethal, Mtb hypoxia rep, Bead autofluor
- CC1(C)C(=O)OC(c2cccc([N+](=O)[O-])c2)C2(CCCCC2)C1=O (stereo not given)
 : 2, -26, 2, 2.3, -3, 13, 2296
- O=C(CSc1nnc(COc2ccccc2)o1)NCCc1ccccc1
 : ·, -21, 7, 0.0, 3, ·, 3505

This part in full, from the first entry:
Below each compound – Mtb hypoxia rep growth, PrP UTR inh, Sa ugtP lethal, RN4220 kill, BJeLR lethal, Mtb hypoxia rep, Bead autofluor
- CC1(C)C(=O)OC(c2cccc([N+](=O)[O-])c2)C2(CCCCC2)C1=O (stereo not given)
 : 2, -26, 2, 2.3, -3, 13, 2296
- O=C(CSc1nnc(COc2ccccc2)o1)NCCc1ccccc1
 : ·, -21, 7, 0.0, 3, ·, 3505
- Cc1ccc(-c2ccc(=O)n(CCC(=O)N3CCN(Cc4ccccc4)CC3)n2)cc1
 : -3, -15, 0, 0.8, -1, 8, 4092
- CCC(=O)NC(=S)Nc1ccc(NC(=O)c2ccc(C)c([N+](=O)[O-])c2)cc1
 : ·, -87, ·, ·, -4, ·, 2346
- CCOc1ccccc1NC(=O)CSc1nc2cccnc2n1C
 : ·, -2, 2, 4.5, 1, ·, 4146
- O=C(Nc1cc(Br)ccc1O)c1cc(-c2cccs2)on1
 : 7, -52, 0, 7.7, -2, 0, 3541
- Brc1ccc(N/N=C(/N=Nc2nn[nH]n2)c2ccccc2)cc1
 : ·, -21, ·, ·, 23, ·, 4066
- CCn1ccc2c(OCC(=O)NCCc3ccc(OC)c(OC)c3)cccc2c1=O
 : -1, -21, 4, -2.6, 1, 10, ?
- O=C1CN(C(=O)COC(=O)c2ccc(Cl)c(S(=O)(=O)N3CCCCC3)c2)c2ccccc2N1
 : 1, -23, 5, -0.9, ·, 5, 8763
- O=C(NCCN1C(=O)C2C3C=CC(C3)C2C1=O)Nc1ccccn1 (stereo not given)
 : ·, -20, 1, 6.5, -2, ·, 4302
- COc1ccc(CCNC(=O)C(C)Sc2ccc(C)cc2)cc1OC (stereo not given)
 : 4, -13, 14, 5.9, -5, 3, 2529
- CC(C)(C)NCCOc1ccc(Br)cc1
 : 1, -15, -5, -13, 5, 10, 3275
- COC(=O)c1cc2cc(NS(=O)(=O)c3ccc(C)cc3)ccc2s1
 : 16, -23, -2, 7.5, 1, 19, 4737
- O=C(CN1CCC(n2nnc3cc(F)ccc32)CC1)Nc1ccc2c(c1)CCC2
 : 4, -14, -8, 5.1, ·, -69, 4537
- N#Cc1ccc(NC(=O)COC(=O)C2Cc3ccccc3CN2C(=O)c2ccccc2)cc1 (stereo not given)
 : 6, -15, 10, 7.8, -8, 11, 8122
- O=C(Nc1ccnc(-c2ccncc2)n1)c1cccs1
 : -7, -19, 6, 7.7, 3, -4, 3822
- Cc1ccc(S(=O)(=O)N2CCN(C(=O)C(C)Cn3nc(C)c(C)c3C)CC2)cc1 (stereo not given)
 : -4, -14, 11, 1.9, 3, 15, 3287
- COc1ccc2cc(S(=O)(=O)c3ccccc3)c(=O)oc2c1
 : 1, -11, 5, 1.0, 8, 4, 4715
- COc1cc(C2NC(=O)NC3=C2C(=O)OC3)cc(OC)c1OC (stereo not given)
 : 14, -8, 8, 3.1, 2, 6, 3269
- Cc1nn(-c2ccccc2)c(N2CCCC2)c1/C=C1\N=C(c2ccccc2)OC1=O
 : 6, -7, 7, 2.3, -2, -5, 2109
- O=c1cc(C(F)(F)F)nc(SC/C=C/c2ccccc2)[nH]1
 : 0, -13, 58, 68, -3, 1, 5433
- CN(C)/C=C1\C(=O)N(C)N=C1C(F)(F)F
 : 2, 5, 5, 2.8, -2, 12, 2598
- Cc1ccc2nc(-c3ccc(NC(=O)CN4CCN(c5ccccn5)CC4)cc3)sc2c1
 : -5, ·, -4, -0.9, 10, -1, 6076
- COc1ccc(NC(=O)Nc2nnc(Cc3ccc(OC)c(OC)c3)s2)cc1
 : -6, -10, 2, 0.4, 3, 1, 3953
- CN(C)/C=N/c1nc2ncc(-c3ccc(Cl)cc3)c(/N=C/N(C)C)n2n1
 : ·, -15, ·, ·, 4, ·, 3650
- CCN(CC)CCCNC(=O)c1cc2c(Cl)nc3ccccc3c2s1
 : 11, -1, 14, -5.1, 9, 8, 3713
- COc1ccc(CCC(=O)Nc2cccc(S(=O)(=O)N(C)C)c2)cc1OC
 : -7, -15, 2, 4.1, 3, 3, 6955
- O=C(CCCC(=O)OCC(Cl)=C(Cl)Cl)Nc1cccc2ccccc12
 : -10, 1, 13, 6.3, 19, -11, 2537
- CC(=O)NCC(=O)OCC(=O)c1ccc(Cl)cc1
 : -3, -23, -1, 4.4, -7, 9, 1966
- CCN(CC)C(=O)c1ccc(NC(=O)c2cc(-n3cnnc3)ccc2Cl)cc1
 : 3, -11, -1, 7.5, -2, 7, 23773*

Entries of single compounds, quoted from the list. Order of values: Mtb hypoxia rep growth, PrP UTR inh, Sa ugtP lethal, RN4220 kill, BJeLR lethal, Mtb hypoxia rep, Bead autofluor
`Cc1ccc(-c2ccc(=O)n(CCC(=O)N3CCN(Cc4ccccc4)CC3)n2)cc1` in the list: -3, -15, 0, 0.8, -1, 8, 4092
`CCOc1ccccc1NC(=O)CSc1nc2cccnc2n1C` in the list: ·, -2, 2, 4.5, 1, ·, 4146

(listing goes on)
Below each compound – Mtb hypoxia rep growth, PrP UTR inh, Sa ugtP lethal, RN4220 kill, BJeLR lethal, Mtb hypoxia rep, Bead autofluor
- Cc1cc(C)n2nc(Nc3ccccc3)cc2n1
 : 6, -33, 18, 7.1, -9, 12, 6511
- N#Cc1c(NC(=O)CSCC(=O)O)sc2c1CCCC2
 : 5, -7, -1, 2.7, -7, 9, 8630
- CCOC(=O)CSc1nc(C)cc2c1C(=O)OC2
 : 7, -16, 1, 2.2, -5, 7, 3937
- CCCCN(C)CCCNC(=O)CN1C(=O)COc2ccc(S(=O)(=O)N3CCOCC3)cc21
 : -4, -15, 8, 2.9, 4, 10, 4920
- CCCc1cc(C(=O)Nc2ccc(C(=O)OC)cc2)cs1
 : 0, -29, 2, 1.6, 8, 7, 5824
- Cn1c(N)c(C(=O)COC(=O)/C=C/c2ccc(S(=O)(=O)N3CCOCC3)cc2)c(=O)n(C)c1=O
 : 3, ·, 2, 1.7, 5, 8, 3990
- O=C(O)COc1ccc2c3c(c(=O)oc2c1)CCCC3
 : 3, -32, -1, 2.7, 1, -3, 4477
- CCC1(c2ccccc2)NC(=O)N(CC(=O)Nc2ccc(S(=O)(=O)N3CC(C)CC(C)C3)cc2)C1=O (stereo not given)
 : -4, -19, -4, -0.6, 3, -6, 5688
- CSc1cccc(NC(=O)C2CCCN(S(=O)(=O)c3ccc(F)cc3)C2)c1 (stereo not given)
 : ·, -7, -7, -7.1, -3, ·, 4597
- O=Cc1sc(Nc2ccccc2)nc1Cl
 : 2, -23, -4, 3.5, -3, 15, 4633
- COC(=O)CSc1[nH]c2cc(C)ccc2c1[N+](=O)[O-]
 : 15, -12, 4, 1.5, 4, 16, 4233
- Oc1ccc(-c2cn3ccccc3n2)cc1O
 : 1, -47, -7, 6.3, -7, 2, 4774
- O=C1CC(NCCc2ccccc2)C(=O)N1CCc1ccccc1 (stereo not given)
 : 3, -4, -1, 4.6, 4, 6, 3632
- COc1ccc(C(=O)COc2ccc(F)cc2)c(O)c1
 : 2, -23, 13, 5.8, -12, -1, 3315
- Cc1ccccc1-n1c(SCC(=O)N/N=C/c2ccccc2OCC(=O)O)nc2ccccc2c1=O
 : ·, -3, ·, ·, 0, ·, 4380
- Cc1nc2ccccc2n1Cc1ccccc1Br
 : 6, -14, 3, 8.0, 1, -1, 3747
- CCOC(=O)/C(C#N)=C(C)/C=C1\Sc2ccccc2N1CC
 : 13, -60, -5, -2.9, -1, -2, 2071
- CNC(=O)COC(=O)CCC(=O)c1cccs1
 : -3, -21, -2, 4.3, -3, 1, 3331
- COc1ccc([C@H]2/C=C\CN(C(=O)CC(C)(C)C)[C@@H](C)C(=O)N2Cc2ccc(F)cc2)cc1
 : ·, -6, ·, ·, 2, ·, 4018
- N[C@@]12CCc3nonc3[C@]1(O)CC(c1ccccc1)=[N+]2[O-]
 : ·, -21, -4, 0.1, 6, ·, 2745
- Cc1ccc(C(=O)C2CCN(CC(=O)Nc3ccc4c(c3)OCCO4)CC2)cc1
 : 1, 1, 7, -0.9, -5, 6, 23981*
- CCCCc1nnc(SCC(=O)Nc2nccs2)n1CC
 : 1, -12, 3, 2.2, -7, 6, 11495
- CC(Sc1nnc(-c2ccco2)n1C)C(=O)N(C)C1CCCCC1 (stereo not given)
 : 2, -6, 4, 2.6, -9, 11, ·
- Clc1c(-c2nnc3n2CCC3)sc2ccccc12
 : 1, -28, 1, 2.0, -3, 3, 3266
- COc1ccc(CNC(=O)C(OC(=O)c2ccco2)c2ccc(OC)cc2)cc1 (stereo not given)
 : 16, -28, 7, 2.5, 12, 4, 3865
- CCOC(=O)N1CCN(S(=O)(=O)c2cc([N+](=O)[O-])ccc2C)CC1
 : 4, -12, 7, 5.2, -6, 13, 4535
- CNC(=O)C1CCCN1S(=O)(=O)c1ccc(OC)cc1 (stereo not given)
 : ·, -26, -5, 1.9, 4, ·, 4922
- O/N=C(\c1ccc(Cl)cc1Cl)c1ncc(C(F)(F)F)cc1Cl
 : ·, -14, ·, ·, 27, ·, 3038
- CC1(C)OC(=O)C2(Cc3ccccc3N3CCCCC32)C(=O)O1 (stereo not given)
 : -2, -5, 11, 4.1, 5, 0, 15686
- COc1ccc2c(c1)C(NC(C)=O)C(=O)N2CCc1ccccc1 (stereo not given)
 : -17, -3, -2, -2.6, 13, -7, 4730
- COC(=O)c1c(NC(=S)Nc2ccc(CC(=O)O)cc2)sc(C)c1C
 : -3, 2, -5, 3.3, -3, 0, 2520
- C1CN(c2nc3nonc3nc2N2CCSCC2)CCO1
 : 2, -22, 1, 2.9, 26, 9, 5777
- COc1ccc(CNC(C)(C)C)cc1Cl
 : 3, -8, 11, 5.5, 12, 15, 16540*
- CCCCOC(=O)Nc1ccccc1C(=O)OC
 : ·, -8, 7, 13, 1, ·, 5847
- COc1ccc(C(=O)OCC(=O)NC2CCCC2)cc1OC
 : 0, -19, 17, 4.1, 4, -5, 4090
- Cc1c(Cl)cccc1N1C(=O)C(N2C(=O)c3cccc([N+](=O)[O-])c3C2=O)C1c1cccs1 (stereo not given)
 : 12, -8, 2, 4.9, -3, 6, 6103
- COc1ccc(-c2sc3ccccc3c2C#CCO)cc1
 : ·, -12, ·, ·, -7, ·, 3649
- COc1ccccc1Oc1cn[nH]c1-c1ccc(OCC(=O)NN)cc1O
 : 7, -17, -10, -0.4, -9, -2, 3344
- O=C(CSc1nnc(C2CC2)n1Cc1ccccc1)N1CCN(S(=O)(=O)c2ccccc2)CC1
 : 6, -10, 2, 2.5, 3, 0, 4621
- Cc1cc(C(F)(F)F)c(C#N)c(=O)[nH]1
 : ·, -15, -2, -0.1, ·, ·, 2177
- CC1(C)C(=O)N(OCc2ccccc2)C(C)(C)C(=O)N1OCc1ccccc1
 : 15, -6, -3, -12, 6, 4, 3272
- CN(C)C=NC(=S)Nc1ccc(Cl)cc1Cl
 : -1, ·, 1, 3.0, ·, 7, ·
- COCC(=O)Nc1ccc(S(=O)(=O)Nc2ccccn2)cc1
 : 3, -37, 1, 1.4, -8, 2, 3751
- CCCC(=O)Nc1ccccc1NC(=O)c1ccc2c(c1)OCO2
 : 14, -46, 3, -0.6, 13, 20, 3889
- CC(CCO)Nc1nc2c(c(=O)n(C)c(=O)n2C)n1Cc1cccc(Br)c1 (stereo not given)
 : 7, -14, -4, 4.4, 5, 9, 11341
- CCOc1ccc(CCNC(=O)CCS(=O)(=O)c2ccc(Cl)cc2)cc1OCC
 : 16, -10, 8, 4.1, -1, 8, 5417
- CCCOc1ccccc1N1C(=O)CC(N2CCOCC2)C1=O (stereo not given)
 : 6, -4, 0, 5.0, ·, 5, 23760*
